E coli growth: E. coli growth inhibition. OD600 absorbance (no concentration beside the values). 330,000 tested, 0.21% active. Escherichia coli growth, OD600, 23 h; stronger effect = lower value;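 active = OD600 absorbance below the run mean of sample wells minus 3.6 SD, in any replicate, cut at about 0.56 in these data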;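 note: stock transfer was 300 nL into about 60 µL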
T cruzi repl: T. cruzi replication inhibition; T. cruzi beta-gal in NIH3T3, luminescence, 90 h; inhibition, % (no concentration beside the values); 300,000 tested, 1.4% active; AID 1885;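 active = mean inhibition across valid replicates above about 55%, limit read from the data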;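 note: signal also drops with host cell toxicity which is not excluded here; 0% = plate median of DMSO wells and 100% = zero luminescence signal; higher percent means less beta-gal luminescence so fewer parasites; stock transfer was 50 nL into about 50 µL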
MLL AF4-AF9 inh: MLL-AF4/AF9 protein interaction inhibition. AID 651704. inhibition, % at 10 µM. 350,000 tested, 0.47% active. P42568. AlphaScreen, biotin-AF4 peptide binding to FLAG-AF9;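 active = every replicate reaching a set inhibition limit, whatever the replicate mean, cut at about 25% in these data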;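 note: 0% = plate neutral control median and 100% = total signal loss; the record names both 10 and 1 µM as test concentration; the first replicate is given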
Target sequence (P42568 whole entry, looked up): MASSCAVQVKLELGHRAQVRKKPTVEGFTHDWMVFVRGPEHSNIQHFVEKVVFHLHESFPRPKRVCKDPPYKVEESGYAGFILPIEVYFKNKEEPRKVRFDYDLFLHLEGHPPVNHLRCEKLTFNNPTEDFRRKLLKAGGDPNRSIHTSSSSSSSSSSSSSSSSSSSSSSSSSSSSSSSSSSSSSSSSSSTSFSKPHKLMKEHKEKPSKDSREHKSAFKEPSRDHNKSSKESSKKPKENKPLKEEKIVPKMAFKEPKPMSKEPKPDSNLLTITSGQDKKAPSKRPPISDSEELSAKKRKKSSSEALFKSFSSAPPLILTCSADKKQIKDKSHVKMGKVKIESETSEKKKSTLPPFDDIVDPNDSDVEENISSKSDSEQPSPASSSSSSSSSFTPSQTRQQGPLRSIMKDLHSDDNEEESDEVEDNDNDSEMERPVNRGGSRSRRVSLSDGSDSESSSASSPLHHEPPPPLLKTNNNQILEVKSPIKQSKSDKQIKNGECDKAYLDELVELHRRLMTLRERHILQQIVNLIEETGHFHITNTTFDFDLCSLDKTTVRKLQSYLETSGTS
UCH37 DUB inh: blocks the human deubiquitinase UCH37; Q9Y5K5; purified proteasome/UCH37, Ub-AMC cleavage fluorescence; inhibition, % (test concentration not listed); 330,000 tested, 0.33% active; AID 588478;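 active = mean of two replicates above 20%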;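 note: 0% = compound-free wells with enzyme and 100% = wells lacking proteasome; stock transfer was 100 nL into about 20 µL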
Target sequence (Q9Y5K5 whole entry, looked up): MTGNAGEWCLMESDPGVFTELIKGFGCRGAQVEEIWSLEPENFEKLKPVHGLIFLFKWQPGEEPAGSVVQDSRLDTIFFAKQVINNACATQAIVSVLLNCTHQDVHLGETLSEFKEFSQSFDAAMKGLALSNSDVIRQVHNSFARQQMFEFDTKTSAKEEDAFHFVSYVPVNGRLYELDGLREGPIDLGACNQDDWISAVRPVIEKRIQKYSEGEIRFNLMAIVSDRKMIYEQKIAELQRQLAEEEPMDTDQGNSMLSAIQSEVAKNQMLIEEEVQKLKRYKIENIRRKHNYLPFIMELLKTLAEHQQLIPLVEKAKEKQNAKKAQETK
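Material: Human UCH37 enzyme supplied as purified proteasome complex | Schedule: 30 min compound-proteasome preincubation then 25 min substrate reaction, room temperature | Detection: AMC fluorescence from Ub-AMC cleavage, excitation 355 nm, emission 460 nm | Benchmarks: Wells without proteasome as full block, compound-free enzyme plus substrate as uninhibited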
Beta cell apopt: blocks beta cell apoptosis | INS-1E cytokine-induced death, ATP luminescence, 48 h; percent of positive-control rescue, neutral wells zero | protection from apoptosis, % (no concentration beside the values) | 300,000 tested, 0.8% active;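 active = all replicates at 75% or more, or half of them and the mean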;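 note: 0% = cytokine-treated negative control wells and 100% = positive control rescue; higher means more ATP so stronger rescue from cytokine killing; wells of about 40 µL received 100 nL stock; the first replicate is given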
A1 inh: inhibitors of the anti-apoptotic protein A1, read as caspase activation. MEF A1-2A-BIM cells, Caspase-Glo 3/7 luminescence, 3 h; percent of clofoctol response, vehicle zero. caspase activation, % (concentration not given with the values). 330,000 tested, 0.066% active. AID 2462;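 active = over half of replicate activation scores above 10%, or exactly half above 10 with the replicate mean above 10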;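 note: wells of about 30 µL received 50 nL stock; many hits fall short of the cut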
FGF22 binding: binders of recombinant human FGF22 by thermal shift; Q9HCT0; SYPRO orange fluorescence; percent of sucrose octasulfate shift, DMSO zero; calls only at 9.99 µM; 340,000 tested, 1.5% active;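 active = melting point raised past a set limit in the mean and every replicate; three in four hits are not shown here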
Target sequence (Q9HCT0 whole entry, looked up): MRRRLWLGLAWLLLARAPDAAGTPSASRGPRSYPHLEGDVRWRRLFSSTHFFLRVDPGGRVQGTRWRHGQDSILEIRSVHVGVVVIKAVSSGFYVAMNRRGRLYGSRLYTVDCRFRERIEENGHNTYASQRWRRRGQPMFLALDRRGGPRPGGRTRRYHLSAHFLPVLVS
rRNA inh HTS: selective bacterial rRNA inhibition in E. coli | E. coli WT GFP vs humanized-ribosome RFP mutants, fluorescence, 24 h; stronger effect = lower value; DMSO median 0, no signal -100 | GFP signal change (wild-type ribosome), % (no concentration beside the values) | 350,000 tested, 1.6% active;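 active = significant combined selectivity score with lowered wild-type GFP, culture density cut under 30%, mutant RFP and density less affected; inactive = any of these conditions unmet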; note: one replicate is shown; some compounds called inactive have numbers as strong as hits
rRNA inh HTS OD600: second read-out of rRNA inh HTS, no call of its own (marks repeat the call); OD600 change, %; measured here: OD600 growth;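 optical density of the mix in the first replicate; 0 = DMSO median and -100 = no signal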
rRNA inh HTS RFP: recorded beside rRNA inh HTS, whose call it bears; RFP signal change, %; measured here: RFP humanized mutant strains;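 first replicate; 0 = DMSO median and -100 = no signal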
Numbers without * were called inactive; i = inactive; x = no result given; & = joins results of further samples. A portion of the library; count on the stated rates, not on these rows.

SMILES	E coli growth	T cruzi repl	MLL AF4-AF9 inh	UCH37 DUB inh	Beta cell apopt	A1 inh	FGF22 binding	rRNA inh HTS	rRNA inh HTS OD600	rRNA inh HTS RFP
Cc1cccc(C)c1NC(=O)CN(C)C(=O)CC1CC2CCC1C2 (centres undefined)	0.72	x	0.2	3.9	-3	-0.1	i	-1	-4	-2.4
Cc1sc2nc(SCC(=O)NCCO)n(-c3ccccc3)c(=O)c2c1C	0.61	-4	-0.9	1.2	-4	0.2	i	4	2	1.2
COc1ccccc1CCNC(=O)CNC(=O)c1ccc2ccccc2c1	0.69	10	-5.7	2.0	2	-0.3	i	-18	-36	0.6
CC(C)C1=NN2C(=N)CC(=O)N=C2S1	0.68	-7	-1.6	2.8	4	0.7	i	3	-1	-0.8
C=CCn1c(SCC(=O)c2cc(C)n(C(C)COC)c2C)nc2sc(C)c(C)c2c1=O (centres undefined)	0.7	42	x	4.4	2	-0.6	x	x	x	x
Cn1nnnc1SCC(=O)Nc1ccccc1Br	0.67	2	-0.7	2.6	2	0.2	i	6	5	-0.2
Cc1ccc(-n2c(=O)c3sccc3n(Cc3cc(=O)n4ccccc4n3)c2=O)cc1	0.69	-15	x	0.2	-8	0.5	x	x	x	x
C[C@H](NC(=O)c1nc[nH]c1C(=O)NC1CCNCC1)C(=O)OC(C)(C)C	0.76	-9	3.3	-2.4	0	0.5	i	6	7	-1.8
O=C(Nc1ccccc1F)c1ccncc1	0.73	-3	x	1.6	-2	1.1	x	x	x	x
COCc1nnc(NC(C)=O)s1	0.71	-22	-0.3	1.0	-1	0.3	i	24	16	1.6
C(=N\Nc1nc2ccccc2[nH]1)/c1ccc2c(c1)OCCO2	x	34	x	x	x	-1.8	i	-1	-16	-4.5
CCOc1ccc(NC(=O)Nc2cccn(Cc3ccccc3)c2=O)cc1	0.68	14	-6.3	-7.7	0	0.8	i	-16	-16	1.1
O=C(NCCO)/C(=C\c1cccc([N+](=O)[O-])c1)NC(=O)c1ccco1	0.66	-21	1.3	0.5	-5	1.0	i	17	12	0.4
COc1ccc(CN2C(=O)C3C4C=CC(C4)C3C2=O)cc1 (centres undefined)	0.75	3	-18	-0.4	-7	1.7	i	1	1	-2.8
COc1ccc(S(=O)(=O)N2CCCC(C(=O)O)C2)cc1 (centres undefined)	0.7	-11	x	-4.7	-4	0.6	x	x	x	x
C/C(CC(C)C)=N\NS(=O)(=O)c1ccc(C)c([N+](=O)[O-])c1	x	-8	-14	x	-5	0.6	i	8	9	3.3
Cc1noc(C)c1C(=O)Nc1cccnc1	0.64	-2	x	5.7	-9	0.3	x	x	x	x
O=C1CC(c2ccccc2)CC(O)=C1C=NCc1ccncc1 (centres undefined)	0.67	16	-1.4	3.5	-1	-0.3	i	15	5	-0.3
CCOc1ccc(S(=O)(=O)N2CCCCC2)cc1NC(=O)Cc1cccs1	x	7	-7.5	x	7	0.0	i	-5	3	1.2
CCOC(=O)c1nn(-c2ccc(C)cc2)c(=O)cc1OCC(=O)Nc1cc(C)ccc1OC	0.72	-8	9.2	-8.3	-2	-1.3	i	5	19	-2.5
O=C(CCn1cccn1)N1CCCC(N2CCN(c3cccc(Cl)c3)CC2)C1 (centres undefined)	0.71	20	3.4	-1.1	6	0.6	i	-1	6	1.5
O=C1C2CCCN2C(c2ccccc2F)N1c1ccc(Cl)cc1 (centres undefined)	0.69	-13	x	1.2	-1	-0.4	x	x	x	x
COc1ccccc1C(=O)COC(=O)Cn1[nH]c(=O)c2ccccc2c1=O	0.7	-2	-4.4	-2.5	-1	0.0	i	-1	1	-0.6
Cc1cccc(C(=O)Oc2ccc3ccc(O)cc3c2)c1	0.71	-16	-4.6	4.6	1	0.3	i	-6	1	-0.5
COC(=O)N/N=C/c1ccc(OS(=O)(=O)c2ccc(C)cc2)c(OC)c1	x	-9	x	x	-1	-0.5	x	-28*	-3.2*	1.5*
CCn1c(C)nc2cc(N)ccc21	0.7	-15	8.9	5.0	0	-0.2	i	6	8	-6.5
COc1ccccc1N1CCN(S(=O)(=O)c2cccc3nsnc23)CC1	0.68	5	x	3.8	-4	-0.1	x	x	x	x
CCCCCCCCNC(=O)c1cnccn1	x	4	-9.5	x	2	-0.1	i	10	8	-2.3
CCc1ncc(C)nc1CC	0.77	x	-1.5	-1.1	-4	-0.5	i	x	x	x
CCN(CC)/C(Sc1ccccc1)=C(\C(Cl)=C(Cl)Cl)[N+](=O)[O-]	0.7	-11	12	2.6	-9	-0.5	i	0	0	0.4
O=C(c1ccc(F)cc1)c1ccc(N2CCCC2)cc1	0.71	23	x	0.9	6	-0.1	x	x	x	x
C#Cc1ccc(CN2CCN(Cc3ccsc3)C(CCO)C2)cc1 (centres undefined)	0.7	17	3.3	3.8	-6	-0.3	x	6	5	3.0
COC(=O)C1(C)NC(c2ccco2)C2C(=O)N(c3ccc(F)cc3)C(=O)C21 (centres undefined)	0.65	-5	0.4	0.4	-1	0.4	i	14	3	-4.6
Nc1ccc(C(=O)O)cc1	0.71&0.68&0.77	-18&3&-13	-1.3&-2.5&-1.2	0.9&3.4&1.4	3&-2&-3	0.0&1.3&0.7	i	1&6	5&2	-4.5&2.2
CCCN(CCC)S(=O)(=O)c1ccc(NC(=O)Cc2cccs2)cc1	0.7	2	x	5.9	0	-0.2	x	x	x	x
Cc1ccsc1C(=O)NC1CCCN(Cc2ccc(Cl)cc2)C1 (centres undefined)	0.68	44	0.8	3.4	3	-0.4	i	-9	-4	0.2
Cc1cc(C)c(NC(=O)CSc2nccn2C)c(C)c1	0.67	-21	x	2.4	-4	0.5	x	x	x	x
Clc1ccccc1-c1nnc2n1CCCCC2	0.69	-13	-1.2	2.6	-8	0.3	i	2	-5	0.0
COc1ccccc1NS(=O)(=O)c1ccc(C(N)=O)cc1	0.7	3	-2.1	3.9	1	0.0	i	6	-1	6.6
Cc1ccc(S(=O)(=O)/N=C2\C=C(Nc3ccc(O)cc3)C(=O)c3ccccc32)cc1	0.67	x	x	48*	120*	3.2	x	x	x	x
COc1ccc(CC(=O)N/N=C(/C)c2ccco2)cc1	x	-12	-6.4	x	-4	-0.7	i	4	1	-0.9
Cc1ccc(C(=O)Nc2nnn(C)n2)cc1	0.66	-20	x	0.5	-4	-1.1	x	x	x	x
Nc1cnnc(N/N=C\c2ccccc2)c1Cl	x	x	1.8	x	-14	-4.4	i	10	10	0.3
O=c1c2c(nc3c(-c4ccc(Cl)cc4)c[nH]n13)CCC2	0.57	-128	2.6	-14	21	-1.9	i	-47	-73	-5.5
COc1ccc(NC(=O)C(=O)c2cn(CC(=O)N3CCCC3)c3ccccc23)cc1OC	0.69	-3	0.9	9.3	-3	-0.8	i	-27	-11	-2.9
O=C(COC(=O)c1ccc(-c2cnc3ccccc3n2)cc1)c1ccccc1	x	-18	-1.7	x	3	-1.4	i	2	1	-1.8
O=C1CC(N2CCC(c3nc4ccccc4o3)CC2)C(=O)N1c1cc(Cl)cc(Cl)c1 (centres undefined)	0.67	-6	x	3.3	-8	0.6	x	x	x	x
COc1ccc(S(=O)(=O)N(CC(=O)O)c2ccc(C)cc2)cc1	0.65	1	0.1	0.7	0	0.5	i	-7	0	3.1
O=c1[nH]c(-c2ccccc2)cs1	0.65	4	-1.9	4.2	-1	0.1	i	6	4	-0.7
Cc1nnc(SCc2cc(=O)oc3ccc4ccccc4c23)n1Cc1ccccc1	0.71	3	x	-11	-3	-0.2	x	x	x	x
Cc1nc(SCc2c(F)cccc2Cl)c2c(=O)n(C)c(=O)n(C)c2n1	0.76	34	-11	3.4	1	0.0	i	1	9	-0.7
CCOc1ccccc1N(CC(=O)N1CCC(C(N)=O)CC1)S(=O)(=O)c1ccc(SC)cc1	0.7	-3	-0.8	0.2	-3	-1.0	i	-3	4	2.5
Cc1ccc(-c2cc(C(=O)N3CCCC(C(F)(F)F)C3)c3ccccc3n2)o1 (centres undefined)	0.71	3	-0.2	i	-6	0.4	i	3	-6	-1.3
Cc1ccc(S(=O)(=O)NCCC(=O)Nc2ccncc2)cc1C	0.7	-12	-18	-0.8	1	-0.2	i	4	2	-0.3
COC(=O)c1ccc(CSc2nc3scc(-c4cccs4)c3c(=O)[nH]2)o1	0.74	-13	x	0.4	0	-0.6	x	x	x	x
CN1CCN(CC(=O)Nc2c(C(=O)C3CC3)oc3ccccc23)CC1	0.72	4	x	2.2	-2	1.2	x	x	x	x
CCN(CC)CCCNC(=O)c1oc2ccc(S(=O)(=O)N3CC(C)CC(C)C3)cc2c1C (centres undefined)	0.69	56*	8.0	4.9	-13	-0.1	i	2	-13	10
COc1ccc(C(=O)COC(=O)c2ccc(NC(=O)c3ccccc3)cc2)cc1	0.72	-4	x	-2.0	-1	-2.9	x	x	x	x
O=C(c1ccccc1)N1CCN(CC(O)Cn2ccc3ccccc32)CC1 (centres undefined)	0.65	-10	2.1	2.0	3	0.1	i	0	1	-4.3
COc1cc(C)c(CN2CCN(S(=O)(=O)c3ccc(Cl)s3)CC2)cc1OC	0.68	x	8.5	3.9	0	-1.2	i	5	-24	3.9

3 entries from above, arranged by SMILES length, ascending:
SMILES	E coli growth	T cruzi repl	MLL AF4-AF9 inh	UCH37 DUB inh	Beta cell apopt	A1 inh	FGF22 binding	rRNA inh HTS	rRNA inh HTS OD600	rRNA inh HTS RFP
Cc1cccc(C)c1NC(=O)CN(C)C(=O)CC1CC2CCC1C2 (centres undefined)	0.72	x	0.2	3.9	-3	-0.1	i	-1	-4	-2.4
Cc1sc2nc(SCC(=O)NCCO)n(-c3ccccc3)c(=O)c2c1C	0.61	-4	-0.9	1.2	-4	0.2	i	4	2	1.2
O=C(COC(=O)c1ccc(-c2cnc3ccccc3n2)cc1)c1ccccc1	x	-18	-1.7	x	3	-1.4	i	2	1	-1.8

The results go on:
SMILES	E coli growth	T cruzi repl	MLL AF4-AF9 inh	UCH37 DUB inh	Beta cell apopt	A1 inh	FGF22 binding	rRNA inh HTS	rRNA inh HTS OD600	rRNA inh HTS RFP
c1ccc(Sc2ncnc3c2oc2ccccc23)nc1	0.65	9	x	5.9	-14	-0.5	x	x	x	x
CCOc1ccccc1NC(=O)C(C)SCc1ccccc1 (centres undefined)	0.69	1	-3.7	1.1	1	1.6	i	-2	-5	2.9
CC1=C(C(=O)OCC(C)C)C(c2cccc(F)c2)N2C(=O)C(C)SC2=N1 (centres undefined)	0.67	1	x	3.4	-1	0.5	x	x	x	x
Cc1ccc(-c2cc(C(=O)NC3CCCCC3)no2)cc1	0.7	3	2.3	1.3	1	0.1	i	10	10	0.0
CCOC(=O)C1CCCN(c2c(Nc3cccc(C)c3)c(=O)c2=O)C1 (centres undefined)	0.72	-7	-1.1	11	3	-0.1	i	-4	-3	-0.7
O=[N+]([O-])c1nn(-c2ccc3c(c2)OCCO3)n(O)c1=NC1CCN(Cc2ccccc2)CC1	0.65	62*	6.8	4.3	29	-0.5	x	-22	-14	25
O=C(CSc1nccc(=O)[nH]1)Nc1ccc(N2CCOCC2)c(Cl)c1	0.69	3	-0.6	4.7	0	1.2	i	0	-8	-2.4
